Screening data as filed in PubChem BioAssay.
Vaccinia inh – blocks a specific stage of Vaccinia orthopoxvirus infection. AID 1053133. activity change (mCherry), % (test concentration not listed). hit rate 0.01% among 89,000. Vaccinia-infected cells, mCherry/Venus stage reporter fluorescence; hits give low values; some inactives read as strong as hits;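 active = mCherry past -33% and 40 or more points under the early reporter, replicates agreeing; inconclusive = past -33% without that gap or agreement; tested in A549 cells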;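 note: scaled between vehicle wells and reference inhibitor wells; 23 nL library stock went into each well; one replicate is shown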
Vaccinia inh Venus – also measured in Vaccinia inh; calls as there; activity change (Venus), %; measured here: Venus reporter, other viral stage;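 negative = less Venus signal; first of two replicates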
Starred values were filed as active, the others as inactive; ? = inconclusive; nt = no result given; & = joins results of further samples. Not all compounds are listed, so the mix of outcomes need not match the whole.

SMILES | Vaccinia inh | Vaccinia inh Venus
CC(C)NC(=O)N1C[C@@H]2[C@H](c3ccccc31)[C@H](CO)N2C(=O)NC(C)C | 21 | 10
CC(C)NC(=O)N(C)C[C@H]1Oc2ccc(N(C)C)cc2CC(=O)N([C@H](C)CO)C[C@H]1C | 5 | 2
Cc1noc(C)c1NC(=O)Nc1cccc2c1O[C@H](CN(C)S(C)(=O)=O)[C@H](C)CN([C@H](C)CO)C2=O | 9 | 8
CN1CCN(C(=O)C[C@H]2CC[C@H]3[C@@H](COC[C@H](O)CN3Cc3ccc(Oc4ccccc4)cc3)O2)CC1 | -14 | -18
CO[C@@H](CN(C)C(=O)c1cnccn1)[C@@H](C)CN([C@@H](C)CO)S(=O)(=O)c1ccc(Cl)cc1 | 0 | 4
COc1ccc(S(=O)(=O)N(C)C[C@@H]2Oc3ccc(NC(=O)c4ccncc4)cc3C(=O)N([C@H](C)CO)C[C@H]2C)cc1 | 2 | 0
CN(C)C(=O)c1cccc(-c2ccc3c(c2)[C@@H]2[C@@H](CCN2C(=O)c2ccncc2)[C@H](CO)N3C)c1 | 18 | 6
C[C@H](NC(=O)C[C@@H]1C=C[C@H](NS(=O)(=O)c2cccc(F)c2)[C@@H](CO)O1)c1ccccc1 | 3 | -3
C[C@@H]1CN([C@@H](C)CO)C(=O)c2cc(NS(C)(=O)=O)ccc2O[C@@H](C)CCCCO[C@H]1CN(C)Cc1ccc2c(c1)OCO2 | -14 | -8
CC(=O)N[C@H]1C[C@@H]2O[C@H](CO)CC[C@@H]2O[C@@H]1CCc1ccc(-c2ccc(F)cc2)cc1 | -15 | -10
CCCc1cn(CC[C@H]2CC[C@@H](NC(=O)C3CCCC3)[C@H](CO)O2)nn1 | -1 | 9
CO[C@@H]1CC[C@H]2CCOc3ccc(C#N)cc3C(=O)N(C)C[C@@H](C)C(=O)N(C)C[C@@H]1O2 | 17 | 1

A draw from above in order of SMILES length, ascending:
SMILES | Vaccinia inh | Vaccinia inh Venus
CCCc1cn(CC[C@H]2CC[C@@H](NC(=O)C3CCCC3)[C@H](CO)O2)nn1 | -1 | 9
CC(C)NC(=O)N1C[C@@H]2[C@H](c3ccccc31)[C@H](CO)N2C(=O)NC(C)C | 21 | 10
CC(C)NC(=O)N(C)C[C@H]1Oc2ccc(N(C)C)cc2CC(=O)N([C@H](C)CO)C[C@H]1C | 5 | 2
CO[C@@H]1CC[C@H]2CCOc3ccc(C#N)cc3C(=O)N(C)C[C@@H](C)C(=O)N(C)C[C@@H]1O2 | 17 | 1
CC(=O)N[C@H]1C[C@@H]2O[C@H](CO)CC[C@@H]2O[C@@H]1CCc1ccc(-c2ccc(F)cc2)cc1 | -15 | -10
CO[C@@H](CN(C)C(=O)c1cnccn1)[C@@H](C)CN([C@@H](C)CO)S(=O)(=O)c1ccc(Cl)cc1 | 0 | 4
CN1CCN(C(=O)C[C@H]2CC[C@H]3[C@@H](COC[C@H](O)CN3Cc3ccc(Oc4ccccc4)cc3)O2)CC1 | -14 | -18
Cc1noc(C)c1NC(=O)Nc1cccc2c1O[C@H](CN(C)S(C)(=O)=O)[C@H](C)CN([C@H](C)CO)C2=O | 9 | 8
COc1ccc(S(=O)(=O)N(C)C[C@@H]2Oc3ccc(NC(=O)c4ccncc4)cc3C(=O)N([C@H](C)CO)C[C@H]2C)cc1 | 2 | 0
C[C@@H]1CN([C@@H](C)CO)C(=O)c2cc(NS(C)(=O)=O)ccc2O[C@@H](C)CCCCO[C@H]1CN(C)Cc1ccc2c(c1)OCO2 | -14 | -8

Other records follow:
SMILES | Vaccinia inh | Vaccinia inh Venus
CN1C(=O)c2cc(NC(=O)Nc3cccc(C#N)c3)ccc2OC[C@H]2O[C@@H](CC(=O)Nc3ccc4c(c3)CCC4)CC[C@@H]21 | -9 | -4
C[C@H]1CN([C@@H](C)CO)C(=O)Cc2cc(NC(=O)Cc3cn(C)c4ccccc34)ccc2O[C@H]1CN(C)S(=O)(=O)c1cccs1 | -21 | -6
C[C@@H]1CN([C@H](C)CO)C(=O)CCCn2cc(nn2)CO[C@@H]1CN(C)C(=O)Nc1ccnc(N2CCOCC2)c1 | 6 | 5
Cc1noc(C)c1NC(=O)N(C)C[C@H]1Oc2c(NC(=O)Nc3ccc(C(F)(F)F)cc3)cccc2C(=O)N([C@@H](C)CO)C[C@@H]1C | 7 | -1
C[C@@H]1CN([C@@H](C)CO)C(=O)c2cc(-c3ccccc3F)cnc2O[C@H]1CN(C)C(=O)NC1CCCCC1 | -4 | -12
C[C@@H]1CCCCO[C@H](CN(C)C(=O)Nc2cccc3ccccc23)[C@@H](C)CN([C@H](C)CO)C(=O)c2cc(NS(=O)(=O)c3ccccc3)ccc2O1 | 22 | 16
O=C(Cc1ccccn1)N1CCCCN2[C@H](C1)[C@H](c1ccc(-c3ccccc3)cc1)[C@@H]2CO | -20 | -17
COc1ccc(C#Cc2ccc([C@@H]3[C@H](CO)N4CCCCN(C(=O)Nc5ccccc5F)C[C@@H]34)cc2)cc1 | ? | nt
C[C@@H]1CN([C@H](C)CO)C(=O)c2cc(NS(=O)(=O)c3cccs3)ccc2O[C@@H](C)CCCCO[C@H]1CN(C)C(=O)NC1CCCCC1 | 3 | -4
COc1ccc2c3c([nH]c2c1)[C@H](CO)N(C(=O)c1cccnc1)CC31CCN(C(=O)CN(C)C)CC1 | 3 | 2
CC(C)NC(=O)N(C)C[C@H]1Oc2ccc(NC(=O)C3CCCCC3)cc2C(=O)N([C@@H](C)CO)C[C@@H]1C | 10 | 3
COc1ccc2c3c([nH]c2c1)[C@@H](CO)N(Cc1nccs1)CC31CCN(C(=O)C2CCCC2)CC1 | 3 | 8
Cc1noc(C)c1S(=O)(=O)Nc1ccc2c(c1)C(=O)N([C@H](C)CO)C[C@H](C)[C@H](CN(C)S(C)(=O)=O)OCCCC[C@@H](C)O2 | 14 | 10
C[C@H]1CN([C@@H](C)CO)C(=O)c2cccc(NS(=O)(=O)c3cccs3)c2O[C@H]1CN(C)S(=O)(=O)c1ccc(F)cc1 | 23 | 18
CCCNC(=O)C[C@@H]1CC[C@H]2[C@@H](COC[C@@H](O)CN2C(=O)Nc2ccc(Cl)c(Cl)c2)O1 | 3 | -2
Cc1ccc(-c2ccc(C3[C@H]4CNC[C@@H]3N4C(=O)Nc3ccc(F)cc3)cc2)cc1 (stereo not given in full) | ? | 22
C[C@H](CO)N1C[C@H](C)[C@H](CN(C)Cc2ccc(Cl)c(Cl)c2)OCCCC[C@H](C)Oc2ccc(NC(=O)Nc3ccc(F)cc3)cc2C1=O | -15 | -13
CC(C)NC(=O)N(C)C[C@@H]1Oc2ncc(C#CC3CCCC3)cc2C(=O)N([C@@H](C)CO)C[C@H]1C | -5 | -3
COc1ccc(S(=O)(=O)Nc2cccc3c2O[C@@H](CN(C)S(=O)(=O)c2cccs2)[C@@H](C)CN([C@@H](C)CO)C3=O)cc1 | 1 | 16
C[C@@H]1CN([C@H](C)CO)C(=O)c2c(c3ccccc3n2C)-c2ccccc2CO[C@H]1CN(C)C(=O)Nc1cccc(Cl)c1Cl | ? | nt
C[C@H]1CN([C@@H](C)CO)C(=O)c2cccc(NC(=O)c3cnccn3)c2O[C@H]1CN(C)Cc1ccc(-c2ccccc2)cc1 | -4 | 1
CO[C@H]1CN(C)C(=O)c2cc(NC(=O)C3CCCCC3)ccc2OC[C@@H](C)N(C(=O)c2ccccc2)C[C@H]1C | -2 | -3
COc1ccc(S(=O)(=O)Nc2cccc3c2O[C@H](CN(C)S(=O)(=O)c2ccc(F)cc2)[C@H](C)CN([C@@H](C)CO)C3=O)cc1 | 10 | 1
O=C(Cc1ccncc1)N1CC[C@H]2[C@H](CO)Nc3ccc(-c4ccccc4)cc3[C@H]21 | 2 | 4
COc1ccc(S(=O)(=O)N(C)C[C@@H]2OCCCC[C@H](C)Oc3ccc(NS(=O)(=O)c4ccc(C)cc4)cc3C(=O)N([C@@H](C)CO)C[C@@H]2C)cc1 | -34 | -23
CCCC#Cc1ccc(CC[C@H]2O[C@H]3CC[C@H](CO)O[C@H]3C[C@H]2n2cc(C(C)(C)O)nn2)cc1 | -6 | -9
Cc1ccc(S(=O)(=O)N(C)C[C@@H]2Oc3ccc(NC(=O)C4CCCCC4)cc3CC(=O)N([C@@H](C)CO)C[C@H]2C)cc1 | -31 | -26
C[C@@H]1CN([C@@H](C)CO)C(=O)c2cc(NC(=O)C3CCCCC3)ccc2O[C@H]1CN(C)S(=O)(=O)c1ccc(F)cc1 | -3 | -2
O=C(C[C@@H]1C=C[C@@H](NC(=O)NC2CCCCC2)[C@H](CO)O1)NCc1ccccc1 | 2 | 7
Cc1noc(C)c1S(=O)(=O)N(C)C[C@@H]1OCCCC[C@@H](C)Oc2ccc(NS(=O)(=O)c3ccccc3)cc2C(=O)N([C@H](C)CO)C[C@H]1C | ? | nt
CO[C@H]1CN(C)C(=O)c2cc(NS(C)(=O)=O)ccc2OC[C@@H](C)N(C(=O)C2CCOCC2)C[C@@H]1C | 9 | 2
O=C(Nc1cc(F)ccc1F)N1CC(=O)N2[C@H](C1)[C@@H](c1ccc(-c3ccccc3)cc1)[C@@H]2CO | ? | nt
Cc1ccc(S(=O)(=O)N[C@H]2CC[C@H](CCNC(=O)C3CCCCC3)O[C@H]2CO)cc1 | -17 | -9
COc1ccc(NC(=O)N[C@H]2CC[C@H](CCNC(=O)Cc3ccncc3)O[C@H]2CO)cc1 | -7 | -7
Cc1ccc(S(=O)(=O)Nc2ccc3c(c2)CC(=O)N([C@@H](C)CO)C[C@H](C)[C@@H](CN(C)C(=O)NC(C)C)O3)cc1 | -2 | 0
C[C@@H]1CN([C@H](C)CO)C(=O)Cc2cc(NC(=O)Cc3ccccc3)ccc2O[C@@H]1CN(C)C(=O)NC1CCCCC1 | 17 | 20
C[C@H]1CN([C@@H](C)CO)C(=O)c2cccc(NC(=O)Nc3ccc4c(c3)OCO4)c2O[C@@H]1CN(C)Cc1ccncc1 | 3 | -2
CO[C@H]1CN(C)C(=O)c2ccc(NC(=O)c3ccccc3F)cc2OC[C@H](C)N(CC2CC2)C[C@H]1C | -14 | -10
OC[C@H]1[C@H](c2ccc(-c3ccccc3)cc2)[C@@H]2CN(Cc3cncnc3)CCCCN12 | 6 | 2
CNC[C@@H]1Oc2ccc(NS(=O)(=O)c3cccs3)cc2C(=O)N([C@H](C)CO)C[C@H]1C | -7 | -5
C[C@H]1CN([C@@H](C)CO)C(=O)c2cc(NS(=O)(=O)c3ccccc3)ccc2O[C@@H]1CN(C)Cc1ccncc1 | 4 | 4
CCCNC(=O)N1CCC2(CC1)CN(Cc1ccccc1)[C@H](CO)c1[nH]c3cc(OC)ccc3c12 | -7 | 1
C[C@@H]1CCCCO[C@H](CN(C)C(=O)c2ccccc2)[C@H](C)CN([C@@H](C)CO)C(=O)c2cc(NC(=O)Cc3ccccc3)ccc2O1 | -6 | -14
CCCN(C)C[C@@H]1Oc2ncc(C#CC3(O)CCCC3)cc2C(=O)N([C@@H](C)CO)C[C@@H]1C | 10 | 1
C[C@H]1CN([C@@H](C)CO)C(=O)CCCn2cc(nn2)CO[C@@H]1CN(C)S(=O)(=O)c1ccc(Cl)cc1 | -2&5 | 5&3
Cc1noc(C)c1NC(=O)N(C)C[C@@H]1Oc2c(NS(C)(=O)=O)cccc2C(=O)N([C@H](C)CO)C[C@H]1C | 14 | 0
CN1CCN(C(=O)C[C@H]2CC[C@@H]3[C@H](COC[C@@H](O)CN3CC3CCCC3)O2)CC1 | 1 | 1
CC(C)(C)[C@@H]1C=C(C(=O)N2CCN(Cc3ccc4c(c3)OCO4)CC2)O[C@H](OCc2ccc(CO)cc2)C1 | -7 | -4
C[C@@H]1CN([C@H](C)CO)C(=O)Cc2cc(NC(=O)c3ccncc3)ccc2O[C@H]1CN(C)C(=O)NC1CCCCC1 | 2 | 12
CCCN1C[C@H](C)[C@@H](OC)CN(C)C(=O)c2cc(NC(=O)NC3CCCC3)ccc2OC[C@@H]1C | 11 | 11
C[C@@H]1CN([C@H](C)CO)C(=O)c2cccc(NS(=O)(=O)c3cn(C)cn3)c2O[C@H]1CN(C)S(=O)(=O)c1cn(C)cn1 | 19 | 16
C[C@@H]1CN([C@H](C)CO)C(=O)c2cc(C#CCC3CCCC3)cnc2O[C@H]1CN(C)C(=O)c1cnccn1 | -7 | -4
Cc1ccc(S(=O)(=O)N(C)C[C@@H]2Oc3ccc(NS(=O)(=O)c4ccc(F)cc4)cc3CC(=O)N([C@H](C)CO)C[C@@H]2C)cc1 | -5 | -5
C/C=C/c1ccc([C@@H]2[C@@H](CO)N(S(C)(=O)=O)C23CN(C(=O)CC)C3)cc1 | 3 | 4
C[C@@H]1CN([C@H](C)CO)C(=O)Cc2cc(NC(=O)Nc3ccc(C(F)(F)F)cc3)ccc2O[C@H]1CN(C)Cc1ccc2c(c1)OCO2 | -21 | -21
CN(C)C(=O)C[C@@H]1CC[C@@H]2[C@H](COc3ccc(NC(=O)c4ccc(F)cc4)cc3C(=O)N2C)O1 | -3 | -6
C[C@@H]1CN([C@H](C)CO)C(=O)c2cccc(N(C)C)c2O[C@@H]1CN(C)C(=O)Nc1ccc2c(c1)OCO2 | 7 | 10
CCCc1cn(CC[C@@H]2CC[C@@H](NC(=O)Nc3ccccc3F)[C@H](CO)O2)nn1 | 5 | 6
CC(C)NC(=O)N(C)C[C@H]1Oc2c(cccc2N(C)C)C(=O)N([C@@H](C)CO)C[C@@H]1C | 14 | 2
